ClpP mod – qHTS Assay for Activators of ClpP | ATP-dependent Clp protease proteolytic subunit (Bacillus subtilis (strain 168)), P80244 | purified B. subtilis ClpP, FRET peptide cleavage, 20 min | Potency, µM (titrated, usually from 57.5 µM), inactives show top-dose activity change, negative = active | 340,000 compounds, 1.9% hits | AID 651965, 2013; active = well fitted falling curve with a large enough effect; inconclusive = small, poorly fitted or top-dose-only effect; inactive = no such curve, though single readings can be large or run the other way; further: the source files actives as falling curves though it sought activators and does not explain the sign; nearly all actives have a fitted effect of over 65% in size; many hits overshoot -100%
Target sequence (P80244 whole entry, looked up): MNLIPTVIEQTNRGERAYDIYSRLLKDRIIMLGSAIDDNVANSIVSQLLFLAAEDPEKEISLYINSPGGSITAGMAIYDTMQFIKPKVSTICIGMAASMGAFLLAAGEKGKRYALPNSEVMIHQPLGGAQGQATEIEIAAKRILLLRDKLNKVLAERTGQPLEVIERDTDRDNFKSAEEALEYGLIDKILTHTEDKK
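Purified B. subtilis ClpP, 10 microg/mL final in Tris/HCl pH8 with KCl, BSA, glycerol and Tween-20, cleaved an Abz/nitrotyrosine-quenched decapeptide. Fluorescence (ex 320, em 430) was read at 0 and 20 min at room temperature. Delta was normalized to 5.8 microM ADEP and DMSO/no-enzyme controls.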
PINK1 modulator – PINK1 expression modulation | 410,000 compounds, 0.2% hits | Potency, µM (highest dose often 76.6 µM), without a hit: at the top dose activation (PINK1 increase), actives largely listed as activators | PINK1 immunofluorescence, high-content cytometry, 24 h; active = well fitted activation curve with a large enough effect; inconclusive = small, poorly fitted or top-dose-only effect; inactive = flat fitted curve, though single readings scatter; cell line not stated here;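 further: % of control where 0% means no effect; nearly all actives have a fitted effect of over 65% in size; a mitochondrial uncoupler was the plate control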
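Decision-based qHTS: stable cells, 24 h exposure to five compound concentrations, CCCP as control. Fixed cells stained for PINK1 plus nuclear, mitochondrial and cell markers, cytometer read.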
The depositor's hits bear a star; ? = inconclusive. Potency means the concentration at half of the fitted maximal effect.

SMILES	ClpP mod	PINK1 modulator
O=C1NC[C@H](Cc2ccccc2)N(C[C@@H]2CCCN2C[C@H](Cc2ccc(O)cc2)N2C[C@H](Cc3ccccc3)N(CC3CCCCCC3)C(=O)C2=O)C1=O	-0.9%	-0.8%
Fc1cccc(F)c1C(Nc1nncs1)Nc1nncs1	-0.3%	3.1%
CCc1ccc(-n2c(=O)c3c4c(sc3n(Cc3ccc(C)cc3)c2=O)CCC4)cc1	0.8%	0.1%
CC(C)c1nn2c(=O)cc(COC(=O)c3ccco3)nc2s1	-2.2%	-0.6%
O=c1[nH][nH]c2c1[C@H](CCc1cccc(Cl)c1)O[C@H](C1CC1)C2	-1.2%	0.7%
Fc1ccc(-n2ncc3c(Nc4ccc(Oc5ccc(Cl)cc5)cc4)ncnc32)cc1	?	0.7%
Cc1ccc2sc(N(CCCN(C)C)C(=O)c3ccco3)nc2c1C	-3.1%	-0.2%
CCOC(=O)c1ccc(N2C(=O)c3n[nH]c(-c4ccco4)c3C2c2cccc(OC)c2)cc1 (stereo not given)	-6.7%	21%
CCCn1c(=O)sc2cc(NC(=O)c3ccccc3OCC)ccc21	10.0%	0.5%
CCC(C(=O)Nc1ccc(C(=O)OC)cc1)n1nc(-c2ccc(C)c(C)c2)ccc1=O (stereo not given)	-21%	4.6%
Cc1[nH]c2ccccc2c1C(=O)C(=O)NC1CC(=O)N(c2cccc(F)c2)C1 (stereo not given)	0.7%	0.2%
Cc1noc(-c2ccc(-c3noc(-c4ccc([N+](=O)[O-])c(C)c4)n3)cc2)n1	2.5%	1.5%
O=S1(=O)N[C@H](Cc2ccccc2)COc2cc(N3CCC[C@H]3CO)ccc21	-4.6%	1.2%
CCCCn1nnnc1C(c1cc2ccccc2o1)N1CCN(c2cc(C)nc3ccccc23)CC1 (stereo not given)	?	12%
Cc1cccc(N2CCN(C(=O)Cn3ncc4c5ccccc5n(C)c4c3=O)CC2C)c1 (stereo not given)	-9.0%	1.1%
CCOC(=O)N1CCc2c(sc3c2c(=O)n(CCc2ccccc2)c(=O)n3Cc2c(F)cccc2Cl)C1	-1.1%	-0.3%
COc1cc(-c2nnc(SCC(=O)N3CCCc4ccccc43)o2)cc(OC)c1OC	-1.5%	1.6%
O=C(Nc1ccc(F)c(Cl)c1)N1CC=C(c2c[nH]c3ccccc23)CC1	-20%	-0.8%
COc1ccc(CNC(=O)Cn2nnc(-c3ccc(S(C)(=O)=O)cc3)n2)cc1	0.6%	1.1%
CCN1CCN(c2cc(C)c3cc(NC(=O)c4cc(Cl)ccc4OC)ccc3n2)CC1	-7.9%	0.3%
Cc1ccc(C)c(NC(=O)Cn2c(=O)n(-c3ccccc3C)c(=O)c3c2c2cc(C)ccc2n3C)c1	?	-0.6%
COC(=O)c1cc(NC(=O)CCc2c(C)nc3nc(C)nn3c2C)cc(C(=O)OC)c1	3.6%	0.5%
Cc1cccc(C)c1NC(=O)CSCc1cnn(-c2ccccc2)c1-n1cccc1	1.8%	1.6%
CC(C)(C)C(=O)Cn1c(=O)n(-c2ccc(Cl)c(Cl)c2)c(=O)c2c3c(sc21)CCCC3	-6.2%	-0.2%
Cc1ccc(CCNC(=O)CCCn2nc(C)c3c(C)n(-c4ccccc4)nc3c2=O)cc1	-1.0%	1.7%
COc1cc(OC)c(NC(=O)Cc2c(C(=O)O)c(C)cn2C)cc1Cl	-1.8%	1.5%
CCc1cccc(NC(=O)Cn2c(=O)ccc3cc(S(=O)(=O)N4CCC(C)CC4)ccc32)c1	-7.5%	-1.8%
Cc1cc2nc(-c3ccc(F)cc3)c(Cc3cccc(Cl)c3)n2c(C)c1Br	-4.9%	-0.4%
CC1=C(C(N)=O)C(c2cccc(C)c2)n2nc(-c3cccc(C)c3)nc2N1 (stereo not given)	-6.4%	1.7%
Cc1ccc(CCNC(=O)C(C)n2nc(C)c3c(C)n(-c4ccc(C)cc4)nc3c2=O)cc1 (stereo not given)	-8.5%	1.7%

Copied from above (seven entries):
SMILES	ClpP mod	PINK1 modulator
CCOC(=O)N1CCc2c(sc3c2c(=O)n(CCc2ccccc2)c(=O)n3Cc2c(F)cccc2Cl)C1	-1.1%	-0.3%
COc1cc(-c2nnc(SCC(=O)N3CCCc4ccccc43)o2)cc(OC)c1OC	-1.5%	1.6%
O=C(Nc1ccc(F)c(Cl)c1)N1CC=C(c2c[nH]c3ccccc23)CC1	-20%	-0.8%
COc1ccc(CNC(=O)Cn2nnc(-c3ccc(S(C)(=O)=O)cc3)n2)cc1	0.6%	1.1%
CCN1CCN(c2cc(C)c3cc(NC(=O)c4cc(Cl)ccc4OC)ccc3n2)CC1	-7.9%	0.3%
Cc1ccc(C)c(NC(=O)Cn2c(=O)n(-c3ccccc3C)c(=O)c3c2c2cc(C)ccc2n3C)c1	?	-0.6%
COC(=O)c1cc(NC(=O)CCc2c(C)nc3nc(C)nn3c2C)cc(C(=O)OC)c1	3.6%	0.5%

Next results follow.
SMILES	ClpP mod	PINK1 modulator
O=C(CN1C(=O)CSc2ccc(S(=O)(=O)N3CCCCC3)cc21)NCc1ccc(F)cc1Cl	-1.4%	-2.5%
COc1ccc(C(=O)c2c(N)c(-c3nc(-c4ccc5c(c4)OCO5)cs3)c3ccccn23)cc1	4.2%	11%
COc1ccc(CC(=O)NO)cc1OC	1.1%	0.3%
Cc1ccccc1-c1nnc(CN2CCN(c3ccccn3)CC2)o1	-5.9%	0.3%
Brc1ccc(C2C=Cc3ccccc32)cc1 (stereo not given)	-1.4%	0.0%
Cc1ccccc1NC(=O)CSC1=Nc2ccccc2C2=NC(CCC(=O)NCc3ccccc3)C(=O)N12 (stereo not given)	?	-1.1%
COc1cc(/C=C/c2nc3cc(Cl)ccc3c(=O)n2-c2cccc(C(F)(F)F)c2)cc(OC)c1OC	1.1%	0.2%
COc1ccc(CNC(=O)c2ccc(CNS(=O)(=O)c3ccc(OC)cc3)cc2)cc1	0.8%	10%
Cc1ccccc1N(C)C(=O)c1noc2c1COc1ccccc1-2	4.9%	1.9%
CCOc1ccc(CNC(=O)Cn2cc3c(n2)-c2c(oc(C(=O)N4CCCC4)c2C)CC3)cc1	7.1%	0.1%
O=C(CCn1cnnn1)Nc1cc(C(F)(F)F)cc(C(F)(F)F)c1	2.4%	4.9%
COc1ccc(NC(=O)Nc2sc3nc4n(c(=O)c3c2C)CCC(C)CC4)cc1OC (stereo not given)	68%	15%
COc1ccc(C)cc1NC(=O)C(CCSC)NS(=O)(=O)c1ccc2c(c1)oc(=O)n2C (stereo not given)	3.3%	5.3%
Cc1ccc2c(C)c(C(=O)N(Cc3ccc(Cl)cc3)C3CCS(=O)(=O)C3)oc2c1 (stereo not given)	-0.7%	-1.8%
COC(=O)[C@]12CCCCC=C1N(Cc1ccc(Cl)cc1Cl)C(=O)[C@H](CC(=O)N1CCC(c3ccccc3)CC1)C2	0.3%	1.8%
CC(C)(C)OC(=O)N1CCC[C@@H]1C(=O)NCc1ccccc1Cl	-1.4%	1.3%
COc1ccccc1CN1CCN(C2CCN(C(=O)NC(C)C)CC2)C(=O)C1=O	0.0%	2.4%
O=S(=O)(NCC(c1ccco1)N1CCN(c2ccccc2)CC1)c1ccccc1 (stereo not given)	-3.7%	0.8%
Cc1ccccc1C(=O)Nc1nnc(S(=O)(=O)N2CCCc3ccccc32)s1	-2.1%	0.6%
COc1ccc2oc(=O)c(-c3nc(-c4cc(OC)c(OC)c(OC)c4)no3)cc2c1	0.5%	-0.6%
CC(C)Cn1c(=O)c2sccc2n2c(CCCC(=O)N3CCN(c4ccc(F)cc4)CC3)nnc12	-2.2%	1.8%
COc1ccc(-c2nc3scc(CCNS(=O)(=O)c4ccc(NC(C)=O)cc4)n3n2)cc1	0.8%	0.3%
Cc1ccc(C)c(N2CCN(S(=O)(=O)c3ccc(C4CCCCC4)cc3)CC2)c1	-0.7%	0.9%
CCC1=Nc2cc(C(=O)N3CCC(C)CC3)ccc2Sc2ccc(C)cc21	0.2%	-0.3%
COc1ccc(NC(=O)Cn2nc(-c3ccccc3)c3cnc4ccc(C)cc4c32)cc1	-11%	0.3%
COc1ccccc1CNC(=O)Cn1c(=O)oc2cc(S(=O)(=O)NCc3ccccc3)ccc21	-4.0%	0.8%
CC(C)(C)OC(=O)N1CCC(c2c(C(=O)NCc3ccccc3)cnn2-c2ccccc2)CC1	1.8%	0.7%
COc1ccc(NC(=O)CC2C(=O)N(c3ccc(C)cc3)C(=O)N2Cc2ccc3c(c2)OCO3)cc1 (stereo not given)	2.5%	2.7%
CCN1CCC(N(Cc2ccc(F)cc2)C(=O)Nc2cc(C)ccc2C)CC1	-0.7%	-1.0%
Cc1cc(C)c2oc(-c3cccc(NC(=O)c4cccc(F)c4)c3C)nc2c1	-22%	-1.3%
Cc1ccc(-c2nc3nc(C)cc(N4CCN(c5cc(Cl)ccc5C)CC4)n3n2)cc1	-2.7%	0.6%
COc1ccc(CCNC(=O)c2cc3c(=O)[nH]c4ccc(C)cc4c3s2)cc1OC	3.8%	5.2%
CCOc1ccc(NC(=O)C2CCN(S(=O)(=O)c3c(C)noc3/C=C/c3cccs3)CC2)cc1	-8.0%	0.3%
COC(=O)c1ccc(NC(=O)CC2C(=O)N(c3cccc(OC)c3)C(=O)N2Cc2ccco2)cc1 (stereo not given)	-0.8%	-0.1%
CC(C(=O)NCc1ccccc1)N1Cc2ccccc2C1=O (stereo not given)	1.3%	1.9%
COc1ccc(-c2nc(SCC(=O)NCc3ccccc3Cl)n[nH]2)cc1	-0.2%	1.5%
CN(C)c1ccc(CNC(=O)Cn2c(=O)oc3cc(S(=O)(=O)NCc4ccccc4)ccc32)cc1	-2.4%	1.8%
COC(=O)c1sc(N2C(=O)c3oc4ccc(C)cc4c(=O)c3C2c2ccc(O)c(OC)c2)nc1C (stereo not given)	0.4%	0.1%
Cc1cc2nc(-c3cccc(NC(=O)COc4ccc(Cl)c(C)c4)c3)oc2cc1C	?	0.1%
O=C(O)C1=CC(c2ccc(Br)cc2)n2ncnc2N1 (stereo not given)	-12%	-0.2%
CCOc1ccc(CNC(=O)CCS(=O)(=O)c2cc3c4c(c2)CCN4C(=O)CC3)cc1	-1.4%	-0.6%
COc1ccc(-c2nc(SCC(=O)NCCCc3ccccc3)n[nH]2)cc1	1.4%	1.8%
Cc1ccc(N(CC(O)Cn2c3ccccc3c3ccccc32)S(=O)(=O)c2ccc(F)cc2)cc1 (stereo not given)	?	?
CN1CCN(C(c2ccc(F)cc2)c2sc3nc(-c4ccco4)nn3c2O)CC1 (stereo not given)	-1.5%	1.5%
Cc1cc(C)n2c(Nc3ccc4c(c3)OCCO4)c(-c3ccc(Cl)cc3)nc2n1	-2.9%	-0.9%

Molecules from the list above that contain bromine, in the order listed:
SMILES	ClpP mod	PINK1 modulator
Cc1cc2nc(-c3ccc(F)cc3)c(Cc3cccc(Cl)c3)n2c(C)c1Br	-4.9%	-0.4%
Brc1ccc(C2C=Cc3ccccc32)cc1 (stereo not given)	-1.4%	0.0%
O=C(O)C1=CC(c2ccc(Br)cc2)n2ncnc2N1 (stereo not given)	-12%	-0.2%

The results go on:
SMILES	ClpP mod	PINK1 modulator
O=S(=O)(c1ccc2c(c1)OCO2)N1CCN(c2nc(-c3cccs3)nc3ccccc23)CC1	3.8%	-0.5%
CCCCNC(=O)C[C@@H]1C[C@@]2(C(=O)OCC)CCC=C2N(Cc2ccco2)C1=O	-3.3%	0.1%
COc1ccc(CCNC(=O)CCc2c(C)nc3nc(C)nn3c2C)cc1OC	-1.5%	-0.4%
CCCSc1ncc(Cl)c(C(=O)N(Cc2ccc(Cl)cc2)Cc2ccco2)n1	-5.0%	2.5%
COc1ccc(NC(=O)CSC2=Nc3ccccc3C3=NC(CCC(=O)NCc4ccco4)C(=O)N23)cc1 (stereo not given)	33%	0.0%
Cc1ccc(NC(=O)N2CCc3c([nH]c4ccccc34)C2c2ccccc2F)c(Cl)c1 (stereo not given)	-3.5%	3.5%
COc1ccc(-c2nc3cc(C)ccn3c2NC(=O)c2cccc(F)c2)cc1	-1.3%	1.1%
CCCSc1nnc2c(n1)OC(c1cccs1)Nc1ccc(Br)cc1-2 (stereo not given)	-1.1%	2.3%
CCN(C(=O)c1ccc(C(=O)N(CC)c2ccccc2C)cc1)c1ccccc1C	-0.8%	0.3%
CCc1ccccc1NC(=O)CSc1nnc(COc2ccccc2Cl)o1	1.0%	1.7%
O=C(NCCn1cc(SCc2ccccc2F)c2ccccc21)c1cccs1	-2.2%	?
CCCN(c1ccc(C(C)C)cc1)S(=O)(=O)c1ccc2c(c1)CCN2C(=O)CC	-17%	1.0%
COc1ccccc1CCNC(=O)c1ccc2c(c1)c(C)c(C)n2Cc1ccc(Cl)cc1	?	-1.4%
Cc1ccc(CNC(=O)c2c(-c3ccccc3F)noc2C)o1	-4.0%	0.2%
CCCCc1ccc(NC(=O)C2(C)Cc3ccccc3C(=O)O2)cc1 (stereo not given)	0.0%	6.3%
CC1=C(c2ccc(C)cc2)S(=O)(=O)NC1=NCCCN1CCN(c2ccccc2F)CC1	0.5%	-0.7%
Cc1cc(C(=O)Nc2cccc(F)c2)c2c(C)nn(-c3cccc(Cl)c3C)c2n1	4.6%	3.5%
COc1ccc(NC(=O)Nc2nnc(N3CCCCCC3)s2)c(OC)c1	1.7%	0.9%

Screening data deposited in PubChem BioAssay by National Center for Advancing Translational Sciences (NCATS).

Some of the compounds tested; rates above refer to the full screens.
